Screening results: PubChem, National Center for Advancing Translational Sciences (NCATS)
TRPV1 potentiator – human TRPV1 potentiation. TRPV1-expressing cells, Fluo-8 calcium influx, capsaicin EC20 potentiation; host cell line not named in the record; control for the full effect not named in the record. potentiation, % at 8.33 µM. 0.02% of 320,000 active; active means potentiation above 80%; inconclusive means 30% to 80%; inactive means below 30%; further: 0% is about no effect
Target sequence (Q8NER1 whole entry, looked up): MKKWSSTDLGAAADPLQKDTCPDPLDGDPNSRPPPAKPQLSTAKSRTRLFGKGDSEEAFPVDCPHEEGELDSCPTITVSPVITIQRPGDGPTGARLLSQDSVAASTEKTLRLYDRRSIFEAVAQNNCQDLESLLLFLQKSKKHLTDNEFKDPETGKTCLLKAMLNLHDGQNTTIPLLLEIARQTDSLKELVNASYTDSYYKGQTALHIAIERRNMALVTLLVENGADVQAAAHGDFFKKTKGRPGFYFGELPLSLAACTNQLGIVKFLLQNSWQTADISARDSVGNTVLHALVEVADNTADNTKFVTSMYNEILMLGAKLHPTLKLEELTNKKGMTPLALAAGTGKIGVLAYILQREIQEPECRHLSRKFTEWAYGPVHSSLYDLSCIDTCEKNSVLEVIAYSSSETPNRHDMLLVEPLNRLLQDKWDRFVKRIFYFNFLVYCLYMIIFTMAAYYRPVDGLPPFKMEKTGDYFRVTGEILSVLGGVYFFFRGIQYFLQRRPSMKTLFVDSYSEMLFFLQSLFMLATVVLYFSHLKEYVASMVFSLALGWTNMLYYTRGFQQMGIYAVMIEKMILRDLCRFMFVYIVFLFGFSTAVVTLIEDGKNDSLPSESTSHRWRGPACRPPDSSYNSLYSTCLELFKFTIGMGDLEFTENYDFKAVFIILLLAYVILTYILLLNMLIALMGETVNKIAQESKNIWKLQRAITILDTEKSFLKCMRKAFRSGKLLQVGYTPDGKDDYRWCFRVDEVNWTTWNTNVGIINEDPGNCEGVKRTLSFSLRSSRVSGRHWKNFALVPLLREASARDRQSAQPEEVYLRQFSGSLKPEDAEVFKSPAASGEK
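Fluo-8 calcium influx in TRPV1-expressing cells, kinetic read (ex 480/em 520 nm). Compound added and read 3 min for agonist activity, followed by capsaicin at EC20 final and 2 min further read for enhancement.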
CtBP-E1A blk – inhibitors of CtBP/E1A interaction; AlphaScreen GST-E1A/His-CtBP binding, 1536-well; active compounds read low; control for the full effect not named in the record; activity change, % (concentration not given with the values); AID 651724; 0.49% of 340,000 active; in the data active means activity change below about -65%; inconclusive means about -30% to -65%; inactive means above about -30%; further: on the % scale 0 is the no-effect control and ±100 the full control effect
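AlphaScreen with 125 nM GST-E1A and 125 nM His-CtBP (5X stocks) in Tris pH 8.0, 300 mM NaCl, BSA, Tween 20, TCEP. Compounds preincubated 2 h at 37 deg C, then glutathione donor/nickel acceptor beads added for 1 h at 37 deg C in dark.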
Sfp inh – blocks B. subtilis Sfp PPTase activity; Q9F4F7; Biochemical Sfp PPTase activity, qHTS; Potency, µM, for the others: max response, negative = inhibition, actives largely listed as inhibitors; 3.5% of 310,000 active; AID 1490; active means well fitted inhibition curve with a large enough effect; inconclusive means small, poorly fitted or top-dose-only effect, or another doubt; inactive means no such curve, though single readings can be large or run the other way;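 further: the enzyme is Sfp with the accession as filed and its product quenches rhodamine fluorescence; potency means the concentration at half of the fitted maximal effect; 0% = enzyme reaction without inhibitor and -100% = no enzyme wells; top concentration of the series not given in the record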
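With Hepes-Na pH 7.6 buffer containing 10 mM MgCl2, Sfp (15 nM) modified BHQ-2-YbbR (12.5 uM) using rhodamine-CoA (5 uM). Two reads 30 minutes apart at 525/598 nm yielded each well's rate.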
PINK1 modulator – modulators of PINK1 expression. Potency, µM (doses to about 76.6 µM), without a hit: top-dose activation (PINK1 increase), hits mostly activators. PINK1 immunofluorescence, high-content cytometry, 24 h. 0.2% of 410,000 active; active = well fitted activation curve with a large enough effect; inconclusive = small, poorly fitted or top-dose-only effect; inactive = flat fitted curve, though single readings scatter; cell line not stated here;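 further: potency means the concentration at half of the fitted maximal effect; % of control where 0% means no effect; nearly all actives have a fitted effect of over 65% in size; a mitochondrial uncoupler was the plate control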
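Stable cell line, 250 cells/well, 12 h attachment; compounds pinned at 5 concentrations, 24 h; CCCP control. Fixed with nuclear dye, primary antibodies 12 h at 10 degrees C, secondary plus cell stain; laser-scanning cytometer read.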
Six1-Eya2 blk – Six1/Eya2 interaction inhibition; AlphaScreen GST-Six1/His-Eya2 binding, biochemical; active compounds read low; control for the full effect not named in the record; activity change, % (concentration not given with the values); 0.56% of 360,000 active; in the data active = activity change below about -65%; inconclusive = about -30% to -65%; inactive = above about -30%; further: on the % scale 0 is the no-effect control and ±100 the full control effect
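GST-Six1 + His-Eya2 (5X stock: 250/500 nM); Tris pH 8.0, 300 mM NaCl, 0.05% BSA, 0.02% Tween 20; GSH donor/Ni acceptor beads; 1 h 37 °C dark; AlphaScreen readout.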
D2 ag – human D2 receptor agonism in beta-arrestin assay. AID 624465. P14416. 0.084% of 360,000 active. DiscoveRx PathHunter D2 beta-arrestin, luminescence, 90 min; 100% = 57 uM dopamine signal. activation, % (test concentration not listed); in the data active = activation above about 40%; inconclusive = about 15% to 40%; inactive = below about 15%; further: compound concentration not given in the record; the text of the record calls up to 30% inactive
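Agonist mode: compounds alone added to overnight-plated D2 PathHunter cells for 90 min at 37 C, with 57 uM final dopamine (EC100) defining full response. Beta-arrestin recruitment detected by chemiluminescent reagent, read after 1 h at ambient temperature.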
D2 potentiator – potentiates the human D2 dopamine receptor allosterically | potentiation, % (test concentration not listed) | DiscoveRx D2 beta-arrestin cells, luminescence, 90 min; 100% = 57 uM dopamine signal | 0.23% of 360,000 active; active = potentiation of 50% or more; inconclusive = 30% to 50%; inactive = 30% or less;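 further: compound concentration not given in the record; tested on top of an EC20 dose of dopamine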
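PathHunter D2 cells, attached overnight at 37 deg C, received compound in DMSO plus dopamine at EC20 (50 nM final) for 90 min at 37 deg C. Beta-arrestin recruitment was read as luminescence after 1 h with detection reagent at ambient temperature.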
The depositor's hits bear a star; i = inactive; ? = inconclusive; · = no result given; & = joins results of further samples; [ ] = another dose, or the depositor's remark.

compound	TRPV1 potentiator	CtBP-E1A blk	Sfp inh	PINK1 modulator	Six1-Eya2 blk	D2 ag	D2 potentiator
CCCNC(=O)c1ccc(C2SCC(=O)N2CCc2ccccc2)cc1 (stereo not drawn)	2	-2	-1%	-0.4%	2	1.9	20
COc1ccc2nc(C)cc(SCC(=O)N3CCCCC3)c2c1	-4	6	4%	-0.5%	-9	0.1	-14
O=C(/C=C/c1ccccc1)NC(=S)NNS(=O)(=O)c1ccccc1	8	-9	16%	3.7%	2	8.6	1
CC1(c2ccc(OC(F)F)cc2)NC(=O)N(CC(=O)Nc2ccccc2)C1=O (stereo not drawn)	-14	-1	19%	3.3%	-2	-1.9	-7
CCN(CC(=O)NCc1ccc(F)cc1)CC(=O)Nc1ccc(S(=O)(=O)N2CCCC2)cc1	9	5	?	0.7%	1	-4.9	-23
O=c1c(Cc2ccc(Cl)cc2Cl)c(O)ccn1Cc1ccncc1	13	-11	16%	-1.4%	1	-5.1	-21
Cc1cc(C)n(CC(=O)N/N=C/c2cc(Br)cc([N+](=O)[O-])c2O)n1	7	·	23%	2.8%	?	-9.2	-5
O=c1cc(CSc2nc(NCc3ccccc3)c3ccccc3n2)nc2ccc(Cl)cn12	5	0	9%	8.9%	0	-2.7	6
O=C(CCSc1ccccc1)Nc1ccc(OCc2ccccc2)cc1	-2	-2	14%	5.2%	15	3.0	-4
CCCCCCCN=CC1=C(O)CC(c2ccccc2)CC1=O (stereo not drawn)	2	9	30%	20%	22	5.3	-10

compound	TRPV1 potentiator	CtBP-E1A blk	Sfp inh	PINK1 modulator	Six1-Eya2 blk	D2 ag	D2 potentiator
Cc1ccc2c(c1)NCC(C(=O)NC1CCCCC1)O2 (stereo not drawn)	-14	6	6%	1.4%[38.3 µM]	-3	-0.6	-10
O=C(CNS(=O)(=O)c1ccc(F)c(Cl)c1)NCCc1ccccc1	8	-9	16%	0.8%	5	-6.4	-5
Cn1cc(-c2csc(C(C)(O)c3cccnc3)n2)cn1 (stereo not drawn)	·	1	·	2.0%	1	-2.2	5
COc1ccc(CCNC(=O)c2cc([N+](=O)[O-])cc([N+](=O)[O-])c2)cc1OC	19	0	2%	2.1%	-3	?	8
CC(=O)N1CSCC1C(=O)O (stereo not drawn)	-7	3	20µM*	0.1%	-2	-0.2	-5
CC1(C(=O)Nc2cccc(S(=O)(=O)N3CCOCC3)c2)Cc2ccccc2C(=O)O1 (stereo not drawn)	-14	·	21%	1.5%	-19	-6.3	-19
S=c1[nH]nc(CCc2ccccc2)n1-c1ccc(Cl)cc1	5	-1	?	-0.4%	0	5.2	-8
O=C(Cc1cccs1)N1CCN(C(=O)C2CCCO2)CC1 (stereo not drawn)	-30	1	0%	0.1%[38.3 µM]	1	-1.1	0
CCN(CC)S(=O)(=O)c1cccc(C(=O)N/N=C/c2ccccc2OCC(=O)O)c1	5	-3	?	0.0%	2	-0.5	1
CC(=O)c1c(Nc2ccccc2)sc(C(=O)c2ccccc2)c1C	7	-4	-11%	2.8%	0	-4.2	-15

Part of the list above in order of length of the SMILES, falling:
compound	TRPV1 potentiator	CtBP-E1A blk	Sfp inh	PINK1 modulator	Six1-Eya2 blk	D2 ag	D2 potentiator
COc1ccc(CCNC(=O)c2cc([N+](=O)[O-])cc([N+](=O)[O-])c2)cc1OC	19	0	2%	2.1%	-3	?	8
O=c1c(Cc2ccc(Cl)cc2Cl)c(O)ccn1Cc1ccncc1	13	-11	16%	-1.4%	1	-5.1	-21
Cc1ccc2c(c1)NCC(C(=O)NC1CCCCC1)O2 (stereo not drawn)	-14	6	6%	1.4%[38.3 µM]	-3	-0.6	-10

(more compounds)
compound	TRPV1 potentiator	CtBP-E1A blk	Sfp inh	PINK1 modulator	Six1-Eya2 blk	D2 ag	D2 potentiator
CC(C)CC(=O)Nc1nnc(S(=O)(=O)N(C)Cc2ccco2)s1	1	·	?	1.1%	0	2.7	-5
C=CCN1C(=O)C(=O)N(Cc2nc3ccccc3s2)C1=O	-1	4	19%	-0.1%	3	-1.5	-3
Cc1onc(-c2ccccc2)c1C(=O)Nc1nnc(C(C)C)s1	2	3	3%	-0.7%	-1	0.2	-7
CCn1cc(C(=O)N2CCCC2)c(=O)c2cc(S(=O)(=O)N3CC(C)CC(C)C3)ccc21 (stereo not drawn)	-3	-3	6%	0.5%	2	-0.5	6
OC(COc1ccccc1)CN1CCN(c2ccccc2)CC1 (stereo not drawn)	·	5	·	-1.1%	24	1.7	-43
CCS(=O)(=O)NCc1csc(-c2ccccc2)n1	12	5	15%	-0.5%	5	-1.9	0
CC#CCN1c2ccccc2[C@]23C[C@@H](C(=O)OC)N(C(=O)OCC)C2=NC(C(=O)OC)=C(C(=O)OC)[C@H]13	27	9	-9%&-3%	3.5%	5	-1.1	0
CC1CN(C/C(=N\O)C23CC4CC(CC(C4)C2)C3)CC(C)O1 (stereo not drawn)	-11	0	2%	1.4%	12	-0.3	-2
CC(C)(C)Nc1nc2ccc([N+](=O)[O-])cc2o1	-15	0	2%	-2.0%	1	-0.8	-7
O=C(CSc1ncccn1)Nc1ccccc1	?	3	-3%	2.3%[38.3 µM]	1	-1.9	-6

compound	TRPV1 potentiator	CtBP-E1A blk	Sfp inh	PINK1 modulator	Six1-Eya2 blk	D2 ag	D2 potentiator
COc1cccc(Cn2nnc(C(=O)NCc3ccccc3Cl)c2N)c1	-11	-1	-4%	3.3%	-4	-1.0	0
O=C(NCc1ccccc1)c1cc(C2CCCCN2C(=O)CCc2ccccc2)on1 (stereo not drawn)	·	6	·	1.0%	0	-1.9	-7
Cc1ccc(-n2nc3c(Cl)nnc(C)c3c2C)cc1	5	-1	15%	2.3%	3	-1.5	-2
OC(COCC1CC=CCC1)Cn1cnc2ccccc21 (stereo not drawn)	17	-7	4%	-2.1%	1	3.8	10
COc1cc(OCc2ccc(C)cc2)ccc1CNC[C@H]1O[C@@H](n2cnc(C(N)=O)n2)[C@H](O)[C@@H]1O	·	1	·	-0.1%	3	-2.4	·
CC(=O)c1cccc(NC(=S)NCc2ccccc2)c1	1	3	8%	1.0%	-9	-1.7	-14
COc1ccc(N2C(=O)c3ccc(C(=O)Nc4ccc(NC(C)=O)cc4)cc3C2=O)cc1	10	-9	1%	2.6%	-1	3.7	-1
CC(C)(CCl)C(=O)Nc1ccc(OC(F)(F)F)cc1	-22	4	13%	2.3%	11	-0.8	-1
CCCn1c(=N)n(CC(=O)c2ccc(OCC(=O)OC)cc2)c2ccccc21	·	·	·	-0.4%	-4	2.5	0
COCCN1C(=O)CCC1(C)C(=O)Nc1c(C)cccc1C (stereo not drawn)	·	-24	·	2.9%	9	-1.0	3

compound	TRPV1 potentiator	CtBP-E1A blk	Sfp inh	PINK1 modulator	Six1-Eya2 blk	D2 ag	D2 potentiator
Cc1nonc1OC(C)CNc1ccc([N+](=O)[O-])cc1 (stereo not drawn)	4	-2	3%	-1.7%	0	-4.3	-16
CCCc1cc2c(cc1NC(=O)c1ccc(Br)cc1)OCO2	-15	-4	1%	15%	7	-0.8	-12
COc1ccc(N2CCN(C(=O)c3ccc(Cl)c(S(=O)(=O)N4CCCC4)c3)CC2)cc1	-10	·	5%	1.4%	-16	-0.4	-10
CC(=O)c1cccc(S(=O)(=O)NCC(C)(C)N2CCOCC2)c1	-1	9	14%	1.4%	2	10	-4
CN1N=C(N)c2cn(C3OC(COP(=O)(O)O)C(O)C3O)c3ncnc1c23 (stereo not drawn)	·	i	·	-3.7%	i	-0.6	-8
CCn1c(SCC(=O)NCC2CCCO2)nc2ccccc21 (stereo not drawn)	12	4	·	-0.2%	10	-1.4	-1
O=C(O)CCS(=O)(=O)c1ccc(-c2ccccc2)cc1	3	12	24%	-0.5%	15	-0.4	-14
CC(C)(C)c1ccc(C(=O)Nc2ccccc2Cl)cc1	-3	33	-4%	?	19	-5.3	-2
COc1ccc(Cl)cc1Nc1nc(-c2sc(NC(=O)CC(C)C)nc2C)cs1	13	0	-6%	0.6%	0	-2.7	-8
COC(=O)c1ccc(C)c(NC(=O)c2c(-c3ccccc3)noc2C)c1	2	12	-1%	·	5	0.3	-16

compound	TRPV1 potentiator	CtBP-E1A blk	Sfp inh	PINK1 modulator	Six1-Eya2 blk	D2 ag	D2 potentiator
C/C(C=O)=C/c1ccccc1	-4	-23	·	-0.3%	5	3.1	-4
COc1cc2c(cc1NC(=O)COc1ccc3ccccc3c1)oc1ccccc12	5	10	?	-0.5%	-1	-3.3	-3
CCN(CC(=O)NCc1cccs1)C(=O)c1cccc(S(=O)(=O)Nc2ccccc2Cl)c1	-2	-26	·	0.1%	-12	7.7	-9
COc1ccc(NC(=O)c2cc(C3CC3)on2)c(OC)c1	-5	21	-4%	3.9%	19	-1.3	-2
c1coc(CNc2nc3sc4c(c3c3ncnn23)CCCC4)c1	18	-8	-28%	15%	4	-0.8	9
CSCCC(NC(=O)c1ccc(Cl)cc1)C(=O)OCC(=O)NCc1ccco1 (stereo not drawn)	3	3	·	-1.3%	-11	-3.3	0
COc1ccc(N2CC(C(=O)Nc3cccnc3)CC2=O)cc1 (stereo not drawn)	-12	3	14%	1.0%	3	?	-4
C=CCn1c(SCC(=O)N(C)CC(=O)Nc2ccc(C)cc2)nnc1-c1ccncc1	·	6	·	4.1%	1	-1.4	-3
O=C(/C=C/c1ccc(F)cc1)NCCC1=CCCCC1	-12	11	-22%	4.5%	12	-0.7	-15
O=C(Nc1ccccc1)C1CCCN(C(=O)c2ccc(Cl)cc2)C1 (stereo not drawn)	-9	2	29%	3.4%	12	0.5	-2

compound	TRPV1 potentiator	CtBP-E1A blk	Sfp inh	PINK1 modulator	Six1-Eya2 blk	D2 ag	D2 potentiator
CC1CCN(C(=O)Cn2c(=O)n(-c3ccc(F)cc3)c(=O)c3sccc32)CC1	-7	·	31%	3.0%	4	-1.1	-10
Cc1c(C(=O)Nc2cccc([N+](=O)[O-])c2)cnn1-c1ccccc1	-10	·	-7%	-1.5%	-1	2.6	-3
S=C(Nc1ccccc1)N1CCCCCC1	-1	2	-7%	0.3%	3	-3.8	-5
CN(CCO)S(=O)(=O)c1ccc2c(c1)C(=NNC(N)=O)c1cc(S(=O)(=O)N(C)CCO)ccc1-2	-4	-9	-5%	3.8%	5	-2.4	-13
CCOCc1cc(CN2CCC(n3nccc3NC(=O)C3CC3)CC2)ccc1OC	-8	0	5%	-3.2%	6	-4.2	-10
CCOC(=O)c1nn(-c2ccccc2)c(=O)c2c(N)scc12	-9	15	13µM*	2.3%	60	-2.7	14
CC1(c2nc3ccccc3[nH]2)c2ccccc2C(=O)N1Cc1ccccc1 (stereo not drawn)	·	-17	·	0.3%	-10	·	·
Cc1cc(C(F)F)n2nc(C(=O)Nc3ccc(S(=O)(=O)N4CCCC4)cc3)nc2n1	?	-3	-3%	3.6%	-2	-1.6	-11
